High-throughput results from PubChem BioAssay.
VACV Venus inh = inhibitors of vaccinia virus (Venus reporter) | Vaccinia virus Venus reporter expression, fluorescence | Potency, µM (series often up to 36.5 µM), without a hit: top-dose activity change, negative = inhibition, actives largely listed as inhibitors | AID 720580 | hit rate 0.46% among 330,000; active means well fitted inhibition curve with a large enough effect; inconclusive means small, poorly fitted or top-dose-only effect; inactive means no such curve, though single readings can be large or run the other way; tested in A549 cells; note: nearly all actives have a fitted effect of over 30% in size; inactives centre near -10
VACV mCherry inh = vaccinia inhibition (mCherry reporter); Vaccinia virus mCherry reporter infection, fluorescence; about a quarter of the inactives have no number; Potency, µM (doses to about 36.5 µM), for inactives: at the top dose activity change, negative = inhibition, hits mostly inhibitors; hit rate 0.63% among 310,000; active = well fitted inhibition curve with a large enough effect; inconclusive = small, poorly fitted or top-dose-only effect; inactive = no such curve, though single readings can be large or run the other way; tested in A549 cells; note: nearly all actives have a fitted effect of over 35% in size; inactives centre near -10
Numbers without * were called inactive; i = inactive; u = inconclusive; x = not tested or not shown; [ ] = dose if it differs, or a comment. % is set by controls: 0 for no effect and ±100 for the full control effect; potency is the fitted concentration of half-maximal effect.

SMILES	VACV Venus inh	VACV mCherry inh
C/C(=N/Nc1ccnc2cc(Cl)ccc12)c1ccc(N)cc1	u	8.91µM*
COc1ccc(S(=O)(=O)N2CCCN(CC(=O)Nc3cc(NC(C)=O)ccc3OC)CC2)cc1	-18.2%	-10.0%
O=C(Cn1cc(SCc2ccc(C(F)(F)F)cc2)c2ccccc21)N1CCCCCC1	-16.1%	-15.4%
COc1ccc(-c2oc3c(c2C#CC(C)(C)O)C(OC)CCC3)cc1 (stereo unspecified)	10.8%	-4.8%
C[C@H](CO)N1C[C@H](C)[C@H](CN(C)S(=O)(=O)c2ccc(C#N)cc2)OCc2cnnn2CCCC1=O	-8.4%	-11.7%
O=C(Nc1cccc(Cl)c1)C1CCCN(C2=NS(=O)(=O)c3ccccc32)C1 (stereo unspecified)	-12.0%	-23.1%
N#Cc1cc([N+](=O)[O-])ccc1NC(=O)COC(=O)c1cnccn1	-4.2%	-16.9%
COc1ccc(C)cc1Nc1n[n+](-c2ccccc2)c(-c2cccc(Cl)c2Cl)s1	-25.6%	-25.7%
CC(C)N1CCC1(C)C(=O)Nc1cc(-c2ccccc2)nn1C (stereo unspecified)	6.8%	56.0%[activator]
COc1ccc(-n2cc(C(=O)c3cc(Cl)ccc3O)cc(C#N)c2=O)cc1	-4.2%	-14.3%
CCCn1nnnc1NC(=O)COc1ccc(CC)cc1	-12.3%	i
Cc1sc2ncn(CC(=O)N3CCN(c4ccc(F)cc4)CC3)c(=O)c2c1S(=O)(=O)N1CCC(C)CC1	-6.2%	-8.5%
COc1cccc(CN(Cc2ccco2)c2cnc(S(C)(=O)=O)nc2C(=O)Nc2cccc(Cl)c2C)c1	-6.3%	-9.2%
Cc1nc2nc[nH]n2c(=O)c1NC(=O)c1c(-c2ccccc2Cl)noc1C	u	x
Cc1ccc(C(=O)OCC(=O)Nc2ccccc2C(F)(F)F)cc1S(=O)(=O)N1CCCCC1	-16.3%	i

Entries of single compounds from above.
O=C(Nc1cccc(Cl)c1)C1CCCN(C2=NS(=O)(=O)c3ccccc32)C1 (stereo unspecified) is listed as VACV Venus inh = -12.0%; VACV mCherry inh = -23.1%
COc1cccc(CN(Cc2ccco2)c2cnc(S(C)(=O)=O)nc2C(=O)Nc2cccc(Cl)c2C)c1 is listed as VACV Venus inh = -6.3%; VACV mCherry inh = -9.2%

(next part)
SMILES	VACV Venus inh	VACV mCherry inh
O=C(Cn1cc(-c2nnnn2-c2ccc(Cl)cc2)c(=O)c2ccccc21)c1ccccc1	-11.5%	-9.9%
O=c1[nH]cnc(O)c1C1C=CC=CC=C1	-9.2%	-4.9%
O=C(CN1C(=O)COc2ccccc21)NC1CCCC1	7.4%	-10.8%
C[N+](C)(C)CCOP(=O)(O)OP(=O)([O-])OC[C@H]1O[C@@H](n2ccc(N)nc2=O)[C@H](O)[C@@H]1O	-4.1%	-12.2%
C/C(CC(=O)NC1CCCC1)=N\NC(=O)C1CCCCC1	-2.2%	-4.1%
CCCCCCCn1c2c(c(=N)c3ccccc31)CCC2	u	u
COc1ccc(C(=O)Nc2ccccc2)cc1NC(=O)c1ccc([N+](=O)[O-])cc1	-23.5%	i
O=C(NCc1cccnc1)c1cc(C2CCCN(C(=O)c3cccc(O)c3)C2)on1 (stereo unspecified)	8.1%	-7.7%
COc1cccc(CNCCSc2nnnn2-c2ccccc2)c1OC	2.0%	-6.1%
O=c1c2cnn(-c3ccccc3)c2ncn1Cc1ccco1	-24.7%	x
CCCOc1ccc(N2CC(C(=O)NC3=NCCS3)CC2=O)cc1 (stereo unspecified)	-6.9%	i
CCn1nc(C)cc1C(=O)Sc1ccc(Cl)cc1Cl	-17.0%[7.34 µM]	-22.4%[7.34 µM]
Cc1cc(C)c2cc(C(=O)N(C)C3CCN(C)CC3)[nH]c2c1	-16.4%	-10.3%
Cc1ccc(CNc2ncnc3sc(C(=O)N4CCCC(C(N)=O)C4)c(C)c23)o1 (stereo unspecified)	4.0%	-3.9%
COc1cc2c(cc1OC)C(COc1ccc(F)cc1)N(C(=O)c1cccc(F)c1)CC2 (stereo unspecified)	-10.6%	-3.1%

Brought forward from above: two compounds, followed by the next part.
SMILES	VACV Venus inh	VACV mCherry inh
Cc1ccc(CNc2ncnc3sc(C(=O)N4CCCC(C(N)=O)C4)c(C)c23)o1 (stereo unspecified)	4.0%	-3.9%
COc1cc2c(cc1OC)C(COc1ccc(F)cc1)N(C(=O)c1cccc(F)c1)CC2 (stereo unspecified)	-10.6%	-3.1%
CCC(CC)C(=O)Nc1cccc(/C(C)=N/NC(=O)c2ccccc2Cl)c1	-24.2%	u
CNC(=O)C(=O)NCCN1CCN(C(=O)c2ccc([N+](=O)[O-])cc2)CC1	-3.2%	-9.4%
COc1ccc(Nc2nc(N)nc(CSc3n[nH]c(-c4ccccc4)n3)n2)cc1	-24.0%	-17.8%
CCOc1ccc(CNc2nc3ccccc3n2CCN2CCOCC2)cc1	-27.9%	x
O=C(Nc1ccc(NC(=O)c2ccco2)nc1)c1ccccn1	-5.8%	-18.0%
O=C1N[C@H](Cc2ccccc2)CO1	-4.2%	i
CCCCc1ccc(NC(=O)CSc2nc3ccccc3nc2N2CCOCC2)cc1	-1.4%	-6.1%
Cc1cc(=O)n2[nH]c(C(F)(F)F)c(-c3ccccc3)c2n1	-17.0%	i
COc1ccccc1N1CCN(C(=O)Cn2cnc3sc(C)c(S(=O)(=O)N4CCC(C)CC4)c3c2=O)CC1	-4.6%	-1.8%
COc1cccc(CCOC(=O)c2c(-c3ccsc3)oc3c2C(OC(C)=O)CCC3)c1 (stereo unspecified)	-4.9%	-1.8%
CCN(C(=O)CSc1nnc(-c2cccs2)n1CC)C1CCS(=O)(=O)C1 (stereo unspecified)	-6.7%	i
COc1ccc(CC(NC(C)=O)C(=O)NC2CCN(C(=O)c3cccc(Cl)c3)CC2)cc1OC (stereo unspecified)	-0.1%	i
O=C(CN1C(=O)COc2ccc(S(=O)(=O)NC3CCCC3)cc21)NCc1ccc(Cl)cc1	-16.3%	-21.3%
CCOc1ccc(NC(=O)C2CCCN(S(C)(=O)=O)C2)cc1 (stereo unspecified)	-21.7%	i
Cc1nc(SCC(=O)Nc2sccc2C(N)=O)c2c(C)c(C)sc2n1	-22.0%	i
Oc1cc2c(cc1O)[C@H]1c3ccccc3CN[C@@H]1CC2	-7.3%	i
COc1ccc(CCNC(=O)[C@H](C)N2C(=O)N3CCc4c([nH]c5ccccc45)[C@@]3(C)C2=O)cc1OC	-19.0%	-7.2%
O=C(COc1ccccc1)NCc1ccc2c(c1)CCN2C(=O)c1ccccc1	-21.5%	-9.2%
FC(F)(F)c1cc(-c2cccs2)nc2nc(N3CCOCC3)sc12	-18.5%	-21.8%
O=C(Nc1ccc2c(c1)OCCO2)c1c(F)cccc1F	-7.0%	-7.8%
COC(=O)C1CCN(C(=O)NC2CCCCC2)CC1	1.3%	-1.1%
O=C(CN1C(=O)c2ccccc2S1(=O)=O)N1CCN(c2ccccc2F)CC1	-16.2%	-3.1%
O=C1CCN(Cc2cccn2-c2ccccn2)CCN1Cc1ccccc1C(F)(F)F	11.1%	-14.5%
CCc1ccccc1NC(=O)C1(C)Cc2ccccc2C(=O)O1 (stereo unspecified)	10.0%	7.1%
CC(NC(=O)CN(C)S(=O)(=O)c1ccc(Br)s1)c1ccccc1 (stereo unspecified)	-20.2%	-25.2%
COc1ccc(S(=O)(=O)Nc2cc(OC)c(NC(=O)c3ccco3)cc2OC)cc1	-19.3%	-2.7%
COc1ccc(OC)c(S(=O)(=O)n2ccnc2C)c1	-17.3%	i
CCCn1c(C)c(C(=O)c2cccc3ccccc23)c2ccccc21	-15.4%	-22.0%
COc1ccc(-c2nnc(SCc3cccc(Cl)c3)o2)cc1	13.6%	8.1%
CC(Oc1cccnc1[N+](=O)[O-])C(=O)N1CCc2ccccc21 (stereo unspecified)	-27.4%	u
CNC(=S)N/N=C/c1cn(CCOc2ccc(OC)cc2)c2ccccc12	u	u
COc1ccc(CCNc2ncccc2C#N)cc1OC	-9.5%	-17.4%
O=C(Nc1ccc(O)c(-c2nc3ccccc3o2)c1)c1ccc(Br)cc1	-18.2%	i
COC(=O)c1sccc1S(=O)(=O)N(CC(=O)Nc1ccc(C)cc1)c1ccccc1	-8.3%	-13.4%
COC(=O)CSc1nc2c(c(=O)n(C)c(=O)n2C)n1CCCc1ccccc1	-8.7%	x
COc1ccc2cc([C@H](C)C(=O)O)ccc2c1	-20.0%	i
CCn1c(SCC(=O)N2CCN(c3ccc(F)cc3)CC2)nnc1-c1ccncc1	-2.8%	-7.9%
O=C(COc1cc(Cl)ccc1Cl)Nc1nnc(CC(=O)N2CCOCC2)s1	-0.6%	-4.7%
CCc1ccc(CN(C)Cc2nc(COc3ccccc3)no2)nc1	-14.4%	-0.5%
Cc1ccc(S(=O)(=O)Cc2ccc(C(=O)NCc3cccs3)o2)cc1	-11.9%	i
CCCNC(=O)C1(C)CCCN(C(=O)c2cccc(OC(C)=O)c2C)C1 (stereo unspecified)	-5.9%	31.5%[activator]
CNC(=O)c1ccc2nc(-c3ccco3)c(-c3ccco3)nc2c1	12.0%	-10.3%
Cn1c(O)c(N=NC(=O)c2cc(-c3cccs3)nc3ccccc23)c2ccccc21	-7.2%	i
Nc1ccccc1C(=O)NNC1=C(C(=O)C(F)(F)F)CCC1	-4.9%[7.34 µM]	-23.2%[7.34 µM]
O=C(Oc1cccc2cccnc12)c1cccc([N+](=O)[O-])c1	-12.4%	-21.2%
COc1ccc(C2NC(=O)NC(C)=C2C(=O)OC2CCCC(C)C2)cc1 (stereo unspecified)	-15.9%	-12.3%
CCc1nnc(NC(=O)c2ccc(S(=O)(=O)N3CCCC(C)C3)cc2)s1 (stereo unspecified)	8.6%	-5.3%
Cc1ccc(C2CC(=O)Nc3c2ccc2ccccc32)cc1[N+](=O)[O-] (stereo unspecified)	-20.9%	u
O=C1CC(N2CCC(c3nc4ccccc4o3)CC2)C(=O)N1Cc1cccs1 (stereo unspecified)	10.0%	x
COc1ccccc1NC(=O)Cn1cnc2sc(C(=O)NCc3ccco3)c(C)c2c1=O	-7.7%	x
COc1cc(OC)c(NC(=O)c2cnn(-c3ccccc3)c2-n2cccc2)cc1Cl	-10.9%	-11.7%
CCOc1ncccc1C(=O)NC(C)CCc1ccccc1 (stereo unspecified)	-4.9%	-8.7%
CCCN1C(=O)c2ccccc2NC1c1ccc(OC)c(COc2ccc([N+](=O)[O-])cc2)c1 (stereo unspecified)	-11.2%	17.3%
O=C(CCC1CCCC1)Nc1ccc([N+](=O)[O-])cn1	-10.2%	-21.6%
COc1ccc(CC(=O)NC2CC(=O)N(c3cccc(F)c3)C2)cc1 (stereo unspecified)	-7.2%	-10.4%
Cc1ccc(S(=O)(=O)c2ccc(Cl)cc2)cc1S(=O)(=O)NC(C)C(=O)O (stereo unspecified)	-9.2%	-6.7%
CCCCN1C(=O)C(CC(=O)NCc2cccs2)CC(C(=O)N2CCCCCC2)=C1C (stereo unspecified)	-18.0%	i
COCCNc1nc(Nc2ccccc2Cl)c2sc(-c3ccccc3)cc2n1	-9.3%	-6.2%
O=C1c2ccccc2C(=O)N1CCSC(=S)N1CCOCC1	-9.2%	-9.6%
CNC(=O)[C@@H]1C[C@H]1[C@@H](NC(=O)OCc1ccccc1)c1ccccc1	-10.6%	11.6%

(further entries)
SMILES	VACV Venus inh	VACV mCherry inh
CCOC(=O)C(Sc1cc(C)nc(N)n1)C(C)=O (stereo unspecified)	-19.2%	-25.7%
CCCC(C(=O)NC(C)(C)C)N(CC1CCCO1)C(=O)c1snc(C(N)=O)c1N (stereo unspecified)	19.9%	-3.7%
COC(=O)[C@@H]1CCCN1C(=O)CCc1nnc(C2CCCCC2)o1	-5.0%	i
Cc1cc(NC(=O)CSCC(=O)Nc2ccc(Cl)c(C(F)(F)F)c2)no1	-12.1%	-17.6%
CSc1ccc(CNC(C)(C)CO)cc1	-0.8%	-14.4%
O=C(O)CCSc1nnc(COc2cccc3cccnc23)n1-c1ccccc1	-10.4%	-20.3%
CCOC(=O)c1cnc2c(C)cc(Cl)cc2c1NCCc1ccc(OC)c(OC)c1	-9.7%	-2.2%
O=C(OCC(=O)N1CCN(c2ccccc2)CC1)c1cc(F)c(F)cc1Cl	-5.3%	i
COc1ccc(Cl)c(N2CCN(CCCNC(=O)Nc3ccc(C)cc3)CC2)c1	-32.6%	x
COc1ccc(NC(=O)c2ccc3nccnc3c2)cc1	-8.3%	x
Cc1ccc(S(=O)(=O)N2C[C@]3(O)C[C@@H]4C(=O)N(c5ccccc5)C(=O)[C@@H]4C[C@]3(OC(=O)NC3CC3)C2)cc1	-10.5%	-10.8%
CCN(CC)CCCNC(=O)C1CCN(C(=O)c2cc3sccc3n2Cc2ccc(F)cc2)CC1	-28.1%	-0.7%
CCCCCNc1c(C(=O)OCC)c(=O)[nH]c2ccccc12	u	u
O=C(CSc1nnnn1-c1ccccc1)Nc1ncc(Cc2ccccc2Cl)s1	-9.5%	i
CCOC(=O)[C@]12Cc3ccccc3[C@H]1N(C1CCCCC1)C(=O)c1cc(OC)ccc12	u	u
C=CCC(C(=O)OC)(C(=O)OC)c1ccc([N+](=O)[O-])cc1[N+](=O)[O-]	-10.7%	-8.3%
CCC1(C)Cc2c(sc3nnn(CC(=O)Nc4ccc(Cl)cc4)c(=O)c23)CO1 (stereo unspecified)	-10.4%	-25.4%
N#Cc1cccc(NC(=O)CSc2ccccc2)c1	-7.2%	-3.8%
COC(=O)c1ccc(NC(=O)Nc2cccc(F)c2)cc1	-21.1%	-11.7%
CCCCc1oc2c(c(=O)c1C)C(=O)CC(c1ccccc1)C2 (stereo unspecified)	-23.5%	u
